NPYLR7 agonist: mosquito NPYLR7 agonism. AID 1259423. hit rate 0.15% among 270,000. HEK293T NPYLR7/Galpha15, GCaMP6s calcium fluorescence. activation, % at 10 µM; in the data active = activation above about 40%;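 note: 0% = vehicle and 100% = reference agonist at the receptor; some compounds past the cut are filed as inactive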
NPYLR7 agonist max-min: further read-out of NPYLR7 agonist, marked with its call; activation, %; measured here: Max-Min RFU normalised activation; some inactives read as strong as hits;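 span of the calcium signal over five minutes; 0% = vehicle and 100% = native peptide agonist; compound fluorescence can raise it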
Active calls of the source: *. Not all compounds are listed; count on the stated rates, not on these rows.

SMILES	NPYLR7 agonist	NPYLR7 agonist max-min
COCC(=O)N1CCC(C(NC(=O)c2ccc(F)cc2)C(=O)NC2CC2)CC1 (stereo not drawn)	-6.0	-5.7
c1ccc2c(c1)nc1c2ccc2[nH]onc21	-6.8	-10.0
CN(C)c1ccc(NC(=O)C2CCCC2)cc1CN(CC1CCCO1)C(=O)Cc1cccs1 (stereo not drawn)	-5.1	2.5
O=C(c1cccs1)N1CCC2(CC1)NC(Cc1ccccc1)C(=O)N2CCc1ccccn1 (stereo not drawn)	3.0	4.8
CCC(=O)NCCc1nc2ccccc2n1C(C)C	7.7	10.7
COc1ccc(/C=C2\SC(=S)N(C(CCSC)C(=O)O)C2=O)cc1OC (stereo not drawn)	-2.4	-9.2
Cc1ccsc1C(=O)NC(C)c1cnn(-c2ccccn2)c1C (stereo not drawn)	3.6	3.7
CC(C)NS(=O)(=O)c1ccc(C(=O)N2CCC(OCC3CCCC3)CC2)cc1	-0.1	-1.2
Cc1cc(C)c(S(=O)(=O)NC(C)Cn2cncn2)c(C)c1 (stereo not drawn)	0.4	5.0
O=C(c1cc(C(F)(F)F)cc(C(F)(F)F)c1)N1CCC(c2nc(-c3ccccc3Cl)no2)CC1	5.5	2.5
O=S1(=O)CCC(NS(=O)(=O)c2ccc3c(c2)CCC3)C1 (stereo not drawn)	-2.0	-4.3
CCOC(=O)C1CCCN(CC(=O)N2N=C(c3ccc(C)cc3C)CC2c2cccc(F)c2)C1 (stereo not drawn)	-8.7	10.8
CCOC(=O)NC1CCCN(c2c(F)cc(C#N)cc2F)C1 (stereo not drawn)	-21.6	-22.4
COc1ccc(C(=O)Nc2c3c(nn2C(C)(C)C)CSC3)cc1	0.2	-2.7
Cc1ccccc1C(C)NC(=O)c1ccccc1S(C)(=O)=O (stereo not drawn)	1.8	0.4
CN(Cc1coc2ccccc2c1=O)CC1CC(=O)N(C2CCCC2)C1 (stereo not drawn)	6.7	5.0
CN(C)c1ccc(/C=C2\N=C(c3ccccc3)OC2=O)cc1	-2.0	-2.5
COc1ccc(/C=C/C(=O)N2CCCC(Nc3cccc(F)c3)C2)cc1OC (stereo not drawn)	17.4	1.3
COc1ccccc1CN(C(=O)c1cccnc1N1CCOCC1)C1CC1	-3.3	-7.8
COc1ccccc1CN1C(=O)c2ccccc2NC12C(=O)N(C)c1ccccc12 (stereo not drawn)	2.7	16.5
COc1ccc2nc(CN3CCN(C(=O)C4(c5ccccc5)CCOCC4)CC3)[nH]c2c1	5.0	3.3
NC(=O)NC(=O)CCN1c2ccccc2C[C@H]1C(N)=O	-0.6	-1.5
CCc1nc(N2CCCC2)c2c3c(sc2n1)CCCC3	0.2	9.3
OCc1cc(Cl)c2c(c1)OCO2	7.2	10.0
CCCc1[nH]ncc1C(=O)NCCCOC1CCCCC1	3.7	1.8

One compound at a time (already shown). Order of values: NPYLR7 agonist | NPYLR7 agonist max-min
Record of COc1ccccc1CN1C(=O)c2ccccc2NC12C(=O)N(C)c1ccccc12 (stereo not drawn) = 2.7 | 16.5
Record of O=S1(=O)CCC(NS(=O)(=O)c2ccc3c(c2)CCC3)C1 (stereo not drawn) = -2.0 | -4.3

New compounds follow
SMILES	NPYLR7 agonist	NPYLR7 agonist max-min
COc1cc(C(=O)Nc2ccccc2C)cc(OC)c1OCC(N)=O	5.8	0.4
COC(=O)c1ccc(NC(=O)COC(=O)C(=Cc2cccs2)c2cccs2)cc1	-5.4	-5.6
CCOC(=O)C1=C(C)NC(=O)NC1c1ccc2c(c1)OCCO2 (stereo not drawn)	5.8	-1.1
COc1ccccc1-n1c(SCc2nc(C(=O)NC(Cc3ccccc3)c3ccccc3)cs2)nnc1-c1ccncc1 (stereo not drawn)	19.6	24.6
O=C(Nc1cccc(C(F)(F)F)n1)C1=NOC(c2ccccc2)C1 (stereo not drawn)	-19.6	-21.7
Cc1cccc(C2c3cccn3-c3ccccc3N2C(=O)CN(C(=O)C(c2ccccc2)c2ccccc2)C2CC2)c1 (stereo not drawn)	23.5	20.1
CC(=O)NCCN1CC[C@H]2CN(C(=O)CCC(=O)O)CC[C@H]2CC1=O	-9.5	-13.8
O=c1c2nc(N3CCOCC3)sc2c(-c2ccco2)nn1Cc1ccc(Cl)cc1	-1.7	-8.2
O=C(CCn1ccnc1)OCc1ccc(Cl)cc1	2.4	1.1
CC1(COc2ccccc2)NCCc2[nH]cnc21 (stereo not drawn)	2.7	2.0
COCCN(Cc1nc2ccccc2o1)C(=O)C1C[C@@H]1c1ccccc1 (stereo partly drawn)	0.1	-0.3
COc1cc2c(cc1OC)n(Cc1ccccc1F)c(=O)n1nc(C)nc21	6.9	3.4
Cc1ccc2c(c1)CCCN2CC(=O)Nc1ccc2c(c1)OCCCO2	5.8	3.8
OCc1cc(O)c2c(O)c3c(O)cccc3c(O[C@@H]3O[C@H](CO)[C@@H](O)[C@H](O)[C@H]3O)c2c1	8.5	0.8
CC(C)(C)c1cc(NC(=O)c2cccc(C#N)c2)n(-c2ccc(Br)cc2)n1	11.6	2.4
COc1cc(C(C)=O)ccc1Oc1ncnc2c1cnn2-c1ccccc1	0.4	-0.2
CCOc1ccc(-n2c(SC(C)C)nc3c(c2=O)SCC3)cc1	0.8	71.2
OCc1ccccc1-c1cnn(Cc2ccccc2)c1	1.2	5.4
CCCCN(CC(=O)N(Cc1cccn1C)CC(C)C)C(=O)Nc1c(Cl)cccc1Cl	-7.1	-8.2
COc1ncccc1C(=O)N1CCCCC1C(C#N)c1ccccc1 (stereo not drawn)	-2.0	-2.6
CC1C(=O)N(c2cccc3ccccc23)CCN1C(=O)c1ccco1 (stereo not drawn)	-0.2	11.3
CCCn1c(NC(=O)c2ccc(OC)cc2O)nc2ccccc21	2.4	0.8
COc1ccccc1C1CC(c2ccc(C)cc2C)=NN1C(=O)CN1CCc2ccccc2C1 (stereo not drawn)	7.4	8.6
CN(Cc1ccc(Oc2ccccc2)cc1)Cc1cc2n(n1)CCNC2	15.7	12.8
Cc1ccc2nc(SCC(=O)NCc3ccccc3)nc(=O)n2c1	3.1	3.0
(continued)
SMILES	NPYLR7 agonist	NPYLR7 agonist max-min
CCOC(=O)C(=O)N(C)C[C@@H]1[C@H](OC(C)=O)[C@@H]2O[C@H]1c1ccccc12	-3.6	4.2
CCN(CC)C(=O)c1ccc(NS(=O)(=O)c2cc3c(cc2Cl)NC(=O)C3)cc1	-5.3	-7.8
O=C1CCC(C(=O)N2CCC3(CCCN(CCC4CCCCC4)C3)C2)=NN1 (stereo not drawn)	2.3	0.6
CC(C)CCN1CCCn2cccc2C1c1ccc(C(F)(F)F)cc1 (stereo not drawn)	9.3	8.4
COc1cc(C=C2SC(=O)N(CCNC(=O)C3CC4CCC3C4)C2=O)ccc1OC(F)F (stereo not drawn)	-3.4	-5.8
CCOC(=O)CSc1nc2c(c(=O)n1-c1ccc(OC)cc1)SCC2	0.1	77.2
COC(=O)[C@@H]1N[C@H](c2cc(OC)ccc2-n2cccn2)[C@@H]2C(=O)N(C)C(=O)[C@@H]21	-0.3	-0.2
Clc1cccc(N2CCN(C3CCCN(C/C=C/c4ccccc4)C3)CC2)c1 (stereo not drawn)	-3.8	-8.8
Cc1cc2c(=O)n(Cc3ccco3)c(SCc3nc4ccccc4[nH]3)nc2s1	1.0	-0.6
Cc1onc(-c2ccccc2Cl)c1C(=O)Nc1ccc(Nc2ccccc2)c2c1C(=O)c1ccccc1C2=O	-6.0	-13.1
O=C(NC(C(=O)N1CCCCC1)C12CC3CC(CC(C3)C1)C2)c1ccc([N+](=O)[O-])cc1 (stereo not drawn)	-0.4	-0.1
O=C(NCc1n[nH]c2c1CCCCC2)c1ccc(=O)[nH]c1	2.4	0.9
CCOc1cc(S(=O)(=O)N2CCN(CCO)CC2)ccc1F	6.4	3.5
CC(=O)N1CCN(Cc2nc3c(C)c(C)ccc3[nH]2)CC1	0.5	3.9
CSc1ncc(CN2CCOC(Cc3cccc(C(F)(F)F)c3)C2)cn1 (stereo not drawn)	7.3	-1.3
COc1ccc(CCn2c(C(C)C)nc3oc4ccccc4c(=O)c3c2=O)cc1	2.3	1.1
CSC1(CNC(=O)N(C)C2CCc3ccccc3C2)CCOCC1 (stereo not drawn)	9.1	9.8
COc1cccc2cc(C(=O)Nc3ccccc3C)c(=N)oc12	-3.6	-9.5
CCOC(=O)C1(C)CCCCCN1C(=O)c1cccc(Cl)c1 (stereo not drawn)	-2.5	-8.6
Cc1cc(=O)oc2cc(CN3CC[C@@H](c4ccc(F)cc4)[C@H](O)C3)ccc12	1.9	0.3
CCc1ccc(-c2nc(C)c(C(=O)OCC(=O)N3CCNC3=O)s2)cc1	1.6	-0.2
Cc1ccc(NC(=O)CCC(=O)N2CCN(c3ccccn3)CC2)cc1	-14.8	-23.4
CC(=O)Nc1ccc(=O)n(Cc2ccc(Cl)c(Cl)c2)c1	5.9	3.1
O=C(CSc1ccc(-c2ccc(-n3ccnc3)cc2)nn1)NCc1ccccc1	-7.9	-7.1
COC(=O)c1cc(C(=O)Nc2ccc(N3CCCC3=O)c(C)c2)cc([N+](=O)[O-])c1	3.0	18.7

Exported as labelled records: entries from further up
mol: Cc1cc2c(=O)n(Cc3ccco3)c(SCc3nc4ccccc4[nH]3)nc2s1
  NPYLR7 agonist = 1.0
  NPYLR7 agonist max-min = -0.6

mol: O=C(c1cccs1)N1CCC2(CC1)NC(Cc1ccccc1)C(=O)N2CCc1ccccn1 (stereo not drawn)
  NPYLR7 agonist = 3.0
  NPYLR7 agonist max-min = 4.8

mol: COc1ccc2nc(CN3CCN(C(=O)C4(c5ccccc5)CCOCC4)CC3)[nH]c2c1
  NPYLR7 agonist = 5.0
  NPYLR7 agonist max-min = 3.3

mol: Clc1cccc(N2CCN(C3CCCN(C/C=C/c4ccccc4)C3)CC2)c1 (stereo not drawn)
  NPYLR7 agonist = -3.8
  NPYLR7 agonist max-min = -8.8

Other results.
SMILES	NPYLR7 agonist	NPYLR7 agonist max-min
O=C(c1cc2ccccc2o1)N1CCCC(CNS(=O)(=O)c2cccs2)C1 (stereo not drawn)	6.8	-4.1
CC(C)(C)c1ccccc1OCCNC(=O)C1CCN(C(N)=O)CC1	10.0	-0.3
CC(=O)Nc1ccc(NC(=O)c2ccc(-c3c(C)noc3C)c3ccoc23)cc1	6.5	5.7
O=C(NC1CC1)c1ccc(CSc2nnc(-c3ccncc3)n2-c2ccc(F)cc2)cc1	15.7	12.5
NS(=O)(=O)c1ccc(CCn2ccnc2-c2ccc3occc3c2)cc1	8.5	6.2
c1ccc2c(c1)CCC(N1CCN(Cc3cc4n(n3)CCCNC4)CC1)C2 (stereo not drawn)	0.6	-0.2
FC(F)(Cl)c1cc(-c2ccccc2)nc2c1ncn2-c1ccccc1	7.8	5.5
CCn1c(CC2CCNCC2)nn(Cc2cc(=O)n3ccc(C)cc3n2)c1=O	-0.7	-6.7
NS(=O)(=O)c1ccc(S(=O)(=O)NCCc2ccncc2)cc1	7.3	1.7
CCC(C)NC(=O)C1=C(C)C(=O)OC12CCCCCC2 (stereo not drawn)	0.7	-2.5
CC1(C(=O)NC2CCCCCC2)CCN1C(=O)Cc1ccc(-c2ccccc2)cc1 (stereo not drawn)	-5.6	-10.2
Cc1ccc(NC(=O)Nc2c(O)c3ccccc3oc2=O)cc1C	5.0	3.6
NC(=NOC(=O)CCC1CCCC1)c1ccccc1	-5.7	4.9
CC(C)N1CCC1(C)C(=O)Nc1nccc2cccnc12 (stereo not drawn)	-6.7	-6.7
C#CCNC(=O)c1ccc(NS(=O)(=O)/C=C/c2ccccc2)cc1	-1.9	-4.3
COc1ccc(Cl)c2sc(N3CCN(C(=O)c4cc(C)no4)CC3)nc12	8.0	10.9
COc1ccc(-c2ccc(C(=O)N3CCOc4ccc(CN5CCOCC5)cc4C3)o2)cc1	24.3	19.0
CCCC1=NN(C(=O)COc2ccc(C)c(C)c2)C(O)(C(F)(F)F)C1 (stereo not drawn)	1.7	2.5
CCn1nc(C(=O)Nc2ccc3nc(N4CCN(C)CC4)sc3c2)cc1C	-2.3	-4.3
COCCN(CCOC)C(=O)c1ccc(Nc2cccc(C(F)(F)F)c2)nc1	-3.1	-5.5
O=C1CC(c2ccccc2)C(=O)N1CCNc1ccc([N+](=O)[O-])cn1 (stereo not drawn)	-7.3	-11.0
CCOC(=O)CCCC(=O)Nc1cccc(-c2cc(C(=O)OCC)nn2-c2ccc(F)cc2)c1	2.0	-0.3
CN(C)CCN1CCN(c2cc(-c3cccc(C(F)(F)F)c3)nc3ccnn23)CC1	-0.4	-5.1
COCC(=O)N1CCSC12C(=O)N(Cc1ccc(F)c(F)c1)c1ccc(OC)cc12 (stereo not drawn)	4.2	3.3
COc1ncccc1C(=O)N1CCCC(C(=O)Nc2cccc(-c3ccc(F)cc3)c2)C1 (stereo not drawn)	6.0	5.6
(continued)
SMILES	NPYLR7 agonist	NPYLR7 agonist max-min
CC(=O)N[C@H]1C[C@@H](CCn2nc(C)cc2C)O[C@@H](C2CCCCC2)C1	-3.4	-2.4
O=C(CCCc1nc2ccccc2s1)NC1CCCC1	1.5	0.6
Cn1cc(C(=O)NC2CCCCC2)c2[nH]c(=O)n(-c3ccc(Cl)cc3)c(=O)c21	1.7	1.1
COc1ccc(S(=O)(=O)NCc2ccc3c(c2)OCO3)cc1	1.7	6.8
Cn1cc(C(=O)O)c2[nH]c(=O)n(Cc3ccccc3)c(=O)c21	-5.1	-6.9
Cc1cc(NC(=O)N(C)C2CCC(c3ccccc3)CC2)n(C)n1 (stereo not drawn)	4.8	1.8
NC(=O)c1n[nH]n2c1nc(=O)c1ccccc12	3.1	1.1

7 entries picked at random from those above:
SMILES	NPYLR7 agonist	NPYLR7 agonist max-min
O=C(CCCc1nc2ccccc2s1)NC1CCCC1	1.5	0.6
CC(=O)N[C@H]1C[C@@H](CCn2nc(C)cc2C)O[C@@H](C2CCCCC2)C1	-3.4	-2.4
Cc1cc(NC(=O)N(C)C2CCC(c3ccccc3)CC2)n(C)n1 (stereo not drawn)	4.8	1.8
Cn1cc(C(=O)O)c2[nH]c(=O)n(Cc3ccccc3)c(=O)c21	-5.1	-6.9
COc1ccc(S(=O)(=O)NCc2ccc3c(c2)OCO3)cc1	1.7	6.8
Cn1cc(C(=O)NC2CCCCC2)c2[nH]c(=O)n(-c3ccc(Cl)cc3)c(=O)c21	1.7	1.1
NC(=O)c1n[nH]n2c1nc(=O)c1ccccc12	3.1	1.1

Assay outcomes as filed in PubChem.
